From PubChem
IL1B secr inh = blocks inflammasome-driven IL-1 beta release; activity change, % at 57.5 µM; actives 4.7% (n = 360,000); THP-1 LPS/ATP IL-1B secretion, AlphaLISA, 16 h; stronger effect = lower value; in the data active = activity change below about -50%; inconclusive = mostly about -30% to -49%; also: % is scaled to controls: 0 for no effect and ±100 for the full control effect
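THP-1 cells pretreated 1 hr with compounds (up to 57.5 uM final), then stimulated with LPS (250 ng/mL final) plus ATP (1.25 mM final); secreted IL-1B measured by AlphaLISA after 16 hr, decreased signal indicating inhibition.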
KB-3-1 cytotox = kills parental KB-3-1 adenocarcinoma cells; KB-3-1 viability, CellTiter-Glo ATP luminescence, 72 h; Potency, µM (top dose mostly 46.1 µM), without a hit: at the highest dose activity change, negative = cytotoxic, hits mostly cytotoxic; actives 1.4% (n = 400,000); AID 1347075; also: potency is read from the fitted curve at half-maximal effect; % is scaled to controls: 0 for no effect and ±100 for the full control effect; nearly all actives have a fitted effect of over 60% in size
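Viability of parental KB-3-1 cells, measured by CellTiter-Glo luminescence, followed a 72 h incubation at 37 °C with pinned compounds in phenol-red-free DMEM containing 10% FBS.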
KB-V1 MDR tox = kills drug-selected multidrug resistant KB-V1 cells. KB-V1 MDR cells viability, CellTiter-Glo, 72 h. Potency, µM (series often up to 46.1 µM), inactives show top-dose activity change, negative = cytotoxicity, usual class: cytotoxic. actives 3.4% (n = 400,000); also: potency is read from the fitted curve at half-maximal effect; % is scaled to controls: 0 for no effect and ±100 for the full control effect; nearly all actives have a fitted effect of over 60% in size
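In this primary screen, KB-V1 cells overexpressing P-gp are incubated with library compounds (lowest to highest concentration) for 72 h at 37 degrees C before a luminescent ATP viability read.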
MCF10A rerep = DNA re-replication induction in MCF 10a cells | MCF 10A DNA re-replication, Hoechst nuclear intensity, 48 h | actives 2.9% (n = 350,000) | AID 624296 | Potency, µM (series often up to 46.1 µM), for inactives: top-dose activity, positive = re-replication, actives largely listed as activators; also: potency is read from the fitted curve at half-maximal effect; % of control where 0% means no effect; nearly all actives have a fitted effect of over 50% in size
ATXN viability = cell viability loss in ATXN counter-screen | S2 cells (HEK-293 line with an ATXN2-luciferase reporter) viability, CellTiter-Fluor protease fluorescence, 24 h | actives 0.49% (n = 400,000) | Potency, µM (top dose mostly 56.7 µM), actives largely listed as cytotoxic | AID 651635; also: potency is read from the fitted curve at half-maximal effect; nearly all actives have a fitted effect of over 40% in size
Active calls of the source: *; i = inactive; ? = inconclusive; · = not tested or not shown; & = joins results of further samples. Unless noted, calls follow the shape of the dose curve; as a rule, active = well fitted curve in the direction sought with a large enough effect; inconclusive = small, poorly fitted or top-dose-only effect, or another doubt; inactive = no such curve, though single readings can be large; an effect the other way counts as inactive or inconclusive.

SMILES | IL1B secr inh | KB-3-1 cytotox | KB-V1 MDR tox | MCF10A rerep | ATXN viability
CC[C@H](O)C(C[C@H](C)N(C)C)(c1ccccc1)c1ccccc1 | · | · | · | · | ?
CC(C)(C)C(O)C(Oc1ccc(Cl)cc1)n1cncn1 (centres undefined) | -18.5 | -8.1% | 0.3% | 7.4% | i
C[C@]12CCC(=O)C(O)=C1CC[C@@H]1[C@@H]2CC[C@]2(C)C(=O)CC[C@@H]12 | -11.9 | 0.0% | -20.0% | -0.1%&24.9% | i
ClCC(Br)CBr (centres undefined) | -11.5 | 0.0% | 10.4% | 9.6% | i
CCCSc1ccc2nc(NC(=O)OC)[nH]c2c1 | 55.7 | 1.16µM* | 1.64µM* | 0.731µM* | ?
ClCCOCOCCCl | 31.0 | 0.0% | 1.5% | 0.4% | i
COc1ccc(C(=O)N2CCCC2=O)cc1 | 6.5 | 0.0% | 16.5% | 6.6% | i
CN[C@H](C)[C@H](O)c1ccccc1 | 8.9 | 0.0% | 19.1% | -3.5% | i
CC(C)(C)c1ccccc1O | -10.1 | 0.0% | -2.0% | 44.4% | i
CN(C)CCOc1ccc(/C(=C(/CCCl)c2ccccc2)c2ccccc2)cc1 | -16.3 | -0.1% | ? | 4.61µM* | i
CC(=O)CC(c1ccccc1)c1c(O)c2ccccc2oc1=O (centres undefined) | -6.2&13.5&17.5 | 0.0%&0.0%&0.0% | 8.3%&-2.0%&8.0% | -10.1%&-14.5%&-15.7% | i
Brc1ccc(-c2ccccc2)cc1 | -15.0 | 0.0% | 0.4% | ? | i
C[C@H]1O[C@H]1P(=O)(O)O | 11.2 | 0.0% | 8.2% | ? | i

Three structures already listed, ordered by count of non-hydrogen atoms, highest first:
SMILES | IL1B secr inh | KB-3-1 cytotox | KB-V1 MDR tox | MCF10A rerep | ATXN viability
CC[C@H](O)C(C[C@H](C)N(C)C)(c1ccccc1)c1ccccc1 | · | · | · | · | ?
CCCSc1ccc2nc(NC(=O)OC)[nH]c2c1 | 55.7 | 1.16µM* | 1.64µM* | 0.731µM* | ?
COc1ccc(C(=O)N2CCCC2=O)cc1 | 6.5 | 0.0% | 16.5% | 6.6% | i

As a short view, ten of the compounds above:
SMILES | IL1B secr inh | KB-3-1 cytotox | KB-V1 MDR tox | MCF10A rerep | ATXN viability
ClCC(Br)CBr (centres undefined) | -11.5 | 0.0% | 10.4% | 9.6% | i
CCCSc1ccc2nc(NC(=O)OC)[nH]c2c1 | 55.7 | 1.16µM* | 1.64µM* | 0.731µM* | ?
ClCCOCOCCCl | 31.0 | 0.0% | 1.5% | 0.4% | i
COc1ccc(C(=O)N2CCCC2=O)cc1 | 6.5 | 0.0% | 16.5% | 6.6% | i
CN[C@H](C)[C@H](O)c1ccccc1 | 8.9 | 0.0% | 19.1% | -3.5% | i
CC(C)(C)c1ccccc1O | -10.1 | 0.0% | -2.0% | 44.4% | i
CN(C)CCOc1ccc(/C(=C(/CCCl)c2ccccc2)c2ccccc2)cc1 | -16.3 | -0.1% | ? | 4.61µM* | i
CC(=O)CC(c1ccccc1)c1c(O)c2ccccc2oc1=O (centres undefined) | -6.2&13.5&17.5 | 0.0%&0.0%&0.0% | 8.3%&-2.0%&8.0% | -10.1%&-14.5%&-15.7% | i
Brc1ccc(-c2ccccc2)cc1 | -15.0 | 0.0% | 0.4% | ? | i
C[C@H]1O[C@H]1P(=O)(O)O | 11.2 | 0.0% | 8.2% | ? | i

An excerpt; rates above refer to the full screens.
